LANA-H2B inh – blockers of LANA interaction with H2A/H2B – biochemical, FP readout, HTS, primary screen; Protein LANA1 (Human herpesvirus 8 type P (isolate GK18)), Q9QR71; cell-free LANA-H2A/H2B peptide, fluorescence polarization; inhibition, % (concentration not given with the values); 0.6% of 320,000 active; AID 2629, 2010; in the data active means inhibition mostly above about 10%, no sharp cut-off; inactive means mostly below about 6.7%;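 further: stock transfer was 7.5 nL into about 10 µL; 0% = median of vehicle wells and 100% = median of positive control wells; one replicate is shown; the record names a cut of 25% in any replicate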
HNF4A DNA FP – change in binding of human HNF4A to DNA, primary screen, biochemical, fluorescence polarization, FITC-DNA. 1 h. Hepatocyte nuclear factor 4-alpha (Homo sapiens), P41235. AID 1224865, 2016. 0.3% of 360,000 active. activity change, % at 10 µM; in the data active means activity change above about 30%, passing the limit was not always enough;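 further: controls were the assay level and a saturating level of protein; the project sought stronger binding though the title names inhibitors; some compounds called inactive have numbers as strong as hits; positive values seem to mean higher polarization but the record does not say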
Target sequence (P41235 whole entry, looked up): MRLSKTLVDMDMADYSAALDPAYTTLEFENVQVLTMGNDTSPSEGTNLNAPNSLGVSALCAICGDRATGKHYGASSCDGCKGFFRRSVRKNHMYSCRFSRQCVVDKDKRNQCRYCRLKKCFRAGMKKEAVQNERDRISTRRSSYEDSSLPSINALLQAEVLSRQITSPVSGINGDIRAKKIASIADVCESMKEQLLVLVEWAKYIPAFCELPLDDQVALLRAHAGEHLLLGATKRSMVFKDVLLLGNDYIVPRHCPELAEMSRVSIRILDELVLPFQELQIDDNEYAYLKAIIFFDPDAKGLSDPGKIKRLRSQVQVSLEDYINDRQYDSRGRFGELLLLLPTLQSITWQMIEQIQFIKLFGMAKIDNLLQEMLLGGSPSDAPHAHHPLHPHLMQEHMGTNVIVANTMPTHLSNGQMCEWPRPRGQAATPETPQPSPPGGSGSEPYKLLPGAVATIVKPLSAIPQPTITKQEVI
UCH37 DUB inh – inhibitors of human UCH37 deubiquitinase, primary screen, biochemical, Ub-AMC cleavage, fluorescence. inhibition, % (test concentration not listed). Ubiquitin carboxyl-terminal hydrolase isozyme L5 (Homo sapiens), Q9Y5K5. 0.33% of 330,000 active. purified proteasome/UCH37;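 active means mean of two replicates above 20%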;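 further: 0% = compound-free wells with enzyme and 100% = wells lacking proteasome; stock transfer was 100 nL into about 20 µL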
Target sequence (Q9Y5K5 whole entry, looked up): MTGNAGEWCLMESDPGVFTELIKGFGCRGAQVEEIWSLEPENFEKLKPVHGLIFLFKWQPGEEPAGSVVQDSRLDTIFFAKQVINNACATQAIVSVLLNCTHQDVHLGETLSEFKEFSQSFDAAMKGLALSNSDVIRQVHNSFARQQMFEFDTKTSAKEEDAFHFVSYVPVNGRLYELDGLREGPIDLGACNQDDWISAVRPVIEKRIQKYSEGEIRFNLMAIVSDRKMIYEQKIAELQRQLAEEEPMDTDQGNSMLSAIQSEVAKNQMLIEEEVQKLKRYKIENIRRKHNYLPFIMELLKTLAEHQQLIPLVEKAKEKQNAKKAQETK
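Material: Human UCH37 enzyme supplied as purified proteasome complex | Schedule: 30 min preincubation with enzyme, 25 min cleavage at room temperature | Detection: AMC fluorescence 355/460 nm | Measure: % inhibition of Ub-AMC cleavage fluorescence | Controls: Wells without proteasome as full block, compound-free enzyme plus substrate as uninhibited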
FGF22 binding – binders of human FGF22 protein, primary screen, FGF22 synaptogenesis inhibitor project, biophysical, thermal shift, single point. calls only at 9.99 µM. Fibroblast growth factor 22 (Homo sapiens), Q9HCT0. recombinant FGF22 thermal shift, SYPRO orange fluorescence; percent of sucrose octasulfate shift, DMSO zero. 1.5% of 340,000 active;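 active means melting point raised past a set limit in the mean and every replicate; three in four hits are not shown here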
B2AR ag – beta2AR agonists driving receptor internalization, primary screen, cell-based, FAP fluorogen, flow cytometry | Beta-2 adrenergic receptor (Homo sapiens), P07550 | Am2.2-beta2AR cells; reference of the scale not given here | response, % (concentration not given with the values) | 0.43% of 340,000 active;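 active means response above a set limit, near 3 SD of response in nonfluorescent compounds, cut at about 42% in these data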;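 further: stock transfer was 100 nL into about 11 µL; a reference agonist was the positive control; negative values mostly stem from fluorescent compounds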
ALR H2O2 inh – inhibitors of human ALR sulfhydryl oxidase, primary screen, biochemical, H2O2 detection, HRP-luminol luminescence, single point; 3.8% of 290,000 active; purified ALR, DTT oxidation; AID 485317, 2010; inhibition, % (no concentration beside the values);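 active means mean and each replicate at 75% or more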;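 further: stock transfer was 7.5 nL into about 7.5 µL; 0% = neutral wells and 100% = wells with inactivated enzyme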
Target sequence (P55789 whole entry, looked up): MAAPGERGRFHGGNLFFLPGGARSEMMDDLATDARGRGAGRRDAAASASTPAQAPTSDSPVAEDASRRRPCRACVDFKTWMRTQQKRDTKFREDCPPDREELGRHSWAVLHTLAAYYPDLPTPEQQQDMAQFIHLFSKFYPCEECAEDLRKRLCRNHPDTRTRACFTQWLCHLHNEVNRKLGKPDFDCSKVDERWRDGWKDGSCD
Ecoli growth – E. coli growth inhibition, primary screen, OD600 | OD600 absorbance (no concentration beside the values) | Escherichia coli growth, 23 h; active compounds read low | AID 1053175, 2014 | 0.21% of 330,000 active;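 active means OD600 absorbance below the run mean of sample wells minus 3.6 SD, in any replicate, cut at about 0.56 in these data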;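 further: stock transfer was 300 nL into about 60 µL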
* = called active by the depositor; i = inactive; x = not tested or not shown. The list is partial; rates above refer to the full screens.

SMILES | LANA-H2B inh | HNF4A DNA FP | UCH37 DUB inh | FGF22 binding | B2AR ag | ALR H2O2 inh | Ecoli growth
Cc1ccc(S(=O)(=O)NN2C(=O)/C(=C/c3cccnc3)SC2=S)cc1 | -3.9 | 1.1 | 7.3 | i | 4.0 | 96.1* | 0.633
O=S(=O)(N1CCCCC1)n1c(Cc2ccccc2)nc2ccccc21 | -5.7 | 2.5 | -0.2 | x | -8.2 | 2.2 | 0.713
COC(=O)C(c1ccccc1)C1(O)CC(C)N(C)CC1C (stereo unspecified) | -0.1 | -0.9 | 2.8 | i | -3.3 | -5.7 | 0.603
CC1CCCN(C(=O)C23CCC(C)(C(=O)C2)C3(C)C)C1 (stereo unspecified) | 2.5 | -1.8 | 3.7 | x | 9.1 | -4.7 | 0.67
Cc1cc(CSC(=N)N)c(CSC(=N)N)cc1C | 18.7* | 2.2 | 9.5 | i | 9.3 | 99.0* | 0.663
O=C(COC(=O)c1cc(S(=O)(=O)N2CCCC2)ccc1O)NCc1ccccc1 | x | -2.3 | -12.0 | i | 1.4 | x | 0.654
COCCN(C(=O)/C=C/c1cccc([N+](=O)[O-])c1)c1c(N)n(Cc2ccccc2)c(=O)[nH]c1=O | -4.5 | -0.9 | 3.7 | i | -12.9 | -1.2 | 0.67
CC(=O)N1c2ccc(S(=O)(=O)N3CCC(C(=O)N4CCCC(C)C4)CC3)cc2CC1C (stereo unspecified) | -4.0 | -1.9 | 6.5 | i | -3.2 | -3.0 | 0.658
CCOC(=O)c1c(NC(=O)Cn2nc([N+](=O)[O-])c(Br)c2C)sc2c1CCC(C)C2 (stereo unspecified) | 0.4 | 0.1 | 4.2 | x | -6.6 | -25.3 | 0.73
Cc1c(C(=O)Nc2ccccn2)sc2nc3n(c(=O)c12)CCC3 | 3.0 | 5.0 | -5.5 | i | -12.4 | -16.3 | 0.652
N/C(=N\OC(=O)c1ccco1)c1cccnc1 | -0.1 | 0.9 | 2.2 | i | 0.8 | -5.1 | 0.689
C/C=C/COC(=O)c1[nH]c2c(c1C)C(=O)CC(c1ccc(N(C)C)cc1)C2 (stereo unspecified) | 3.2 | 0.8 | 1.3 | i | -0.7 | -8.4 | 0.73
Cc1ccccc1-n1nc(C(=O)c2cccs2)cc(-c2nc3ccccc3[nH]2)c1=N | 5.3 | 6.9 | 8.2 | x | 18.7 | x | 0.729
O=C(c1cccs1)N1CCN(c2nc3ccc([N+](=O)[O-])cc3s2)CC1 | 4.6 | 0.2 | 0.4 | i | 1.6 | x | 0.701
Cc1cccc(NC(=O)c2cccc(S(=O)(=O)Nc3ccccc3C(=O)O)c2)c1 | 1.5 | -1.0 | x | i | -2.9 | 11.7 | x
OCC[C@H]1NCc2cc(CO)cc(-c3ccccc3)c21 | x | 4.9 | 0.3 | i | -3.4 | x | 0.689
CSc1ccccc1-c1nnc(NC(=O)Cc2ccccc2)o1 | -3.2 | -1.1 | 0.0 | i | -3.0 | x | 0.696
CCSC(C)CC1CC(=O)CC(=O)C1 (stereo unspecified) | 6.4 | 2.4 | -0.7 | x | 11.0 | -7.2 | 0.76
O=C(O)CCCCCCC1C(=O)NC(=O)N1CCC(O)C1CCCCC1 (stereo unspecified) | -0.9 | -0.5 | 1.3 | i | -12.8 | 5.3 | 0.646
O=C(O)CN1C(=O)C2C3C=CC(C3)C2C1=O (stereo unspecified) | -0.8 | -0.6 | 6.4 | i | -7.6 | x | 0.715
OCC1(CCCc2ccccc2)CCN(Cc2ccc(F)cc2)CC1 | 5.2 | -0.1 | -3.6 | i | 2.6 | -13.5 | 0.694
COc1ccccc1CNC(=O)/C=C/c1ccc(Br)o1 | -0.6 | -51.7 | 0.6 | i | 70.8* | 12.7 | 0.694
COc1ccc(C(=O)Nc2ccccc2C(=O)NC(Cc2c[nH]c3ccccc23)C(=O)O)cc1 (stereo unspecified) | 3.9 | 2.4 | 0.7 | i | 16.7 | 7.2 | 0.619
COc1c(C)cc(C(=O)C2CCCN(C(=O)c3ccc4cc[nH]c4c3)C2)cc1C (stereo unspecified) | 0.2 | 2.1 | 2.0 | i | -3.7 | -3.8 | 0.718
CCn1ncc(Br)c1C(=O)Nc1ncc(C)s1 | -9.6 | 2.7 | 4.7 | i | 3.6 | x | 0.701
O=C(CSc1nnc(-c2cccc(F)c2)o1)N1CCOCC1 | 4.6 | 1.4 | 4.6 | i | -9.0 | 7.6 | 0.694
CC1CSc2ccccc2NC1=S (stereo unspecified) | -1.8 | 0.3 | 2.4 | x | 0.1 | 67.7 | 0.665
Cc1nc([N+](=O)[O-])cn1-c1ccc(N)cc1 | -1.0 | -0.3 | 10.0 | i | -2.2 | 11.3 | 0.704
COc1cccc(/C=C2\Oc3cc(OCC(=O)N4Cc5ccccc5C[C@H]4C(=O)O)ccc3C2=O)c1 | 0.5 | 1.8 | 6.8 | x | 3.1 | 98.5* | 0.687
c1ccc2nc(N3CCCC3)c(N3CCCCC3)nc2c1 | x | 1.6 | -16.0 | i | 5.5 | x | 0.664
COc1cccc(CC(=O)OCC(=O)c2cc(OC)c(OC)c(OC)c2)c1 | 0.4 | -4.1 | -0.1 | i | 8.2 | x | 0.705
COCCC1CCCCN1C(=O)c1cc(COc2ccc(C)nc2)on1 (stereo unspecified) | 45.1* | 5.0 | 4.6 | i | -4.9 | -7.3 | 0.698
COc1cccc2cc(C(=O)OC3CCN(C)CC3)c(=O)oc12 | 0.1 | -6.5 | 2.0 | i | 5.0 | -49.2 | 0.717
CC(/C=C1\SC(=S)N(NC(=O)c2ccc(C)cc2)C1=O)=C\c1ccccc1 | -1.8 | -6.1 | 7.8 | x | 6.8 | -7.4 | 0.716
Cc1ccc(-c2noc(CCCC(=O)Nc3cccnc3)n2)cc1 | 1.5 | -1.7 | 4.3 | x | -6.0 | -1.6 | 0.685
Cn1c(=O)n(CCc2ccccc2)c(=O)c2c1nc1n2CCCN1CCc1ccccc1 | 1.6 | 4.5 | x | x | 28.0 | 5.0 | 0.729
CC1CCN(c2nc(-c3ccncc3)nc3ccccc23)CC1 | -10.2 | 2.3 | -1.1 | x | 2.4 | -2.4 | 0.713
O=C(OCC#CCSc1nc2ccccc2o1)c1cc2ccccc2o1 | -0.6 | 0.2 | -3.8 | x | 2.9 | -1.1 | 0.746
Cn1c(Cc2csc(N)n2)nnc1SC/C=C/c1ccccc1 | 0.3 | -0.2 | 3.2 | x | 1.0 | 3.1 | 0.77
CCOC(=O)CSc1nc2ccccc2c(=O)n1CC1COc2ccccc2O1 (stereo unspecified) | 5.3 | 0.9 | -1.1 | x | -12.6 | -18.6 | 0.743

Shown in CSV form: entries from further up
Structure,LANA-H2B inh,HNF4A DNA FP,UCH37 DUB inh,FGF22 binding,B2AR ag,ALR H2O2 inh,Ecoli growth
COC(=O)C(c1ccccc1)C1(O)CC(C)N(C)CC1C (stereo unspecified),-0.1,-0.9,2.8,i,-3.3,-5.7,0.603
CC1CCCN(C(=O)C23CCC(C)(C(=O)C2)C3(C)C)C1 (stereo unspecified),2.5,-1.8,3.7,x,9.1,-4.7,0.67

Next section.
SMILES | LANA-H2B inh | HNF4A DNA FP | UCH37 DUB inh | FGF22 binding | B2AR ag | ALR H2O2 inh | Ecoli growth
CCCCCOC(=O)C1[C@H]2C(=O)N(CCCOC)C[C@]23C=C[C@H]1O3 (stereo partly specified) | 0.0 | x | 0.5 | x | x | -6.9 | x
Cc1ccc(C)c(NC(=O)c2cc(C)nc3ccccc23)c1 | -0.9 | -2.1 | 0.3 | i | 0.3 | -8.3 | 0.703
Cc1cc(=O)[nH]c(SCC2(O)C3CC4CC(C3)CC2C4)n1 (stereo unspecified) | 1.5 | -2.9 | -0.4 | x | -5.0 | -7.4 | 0.745
CCOC(=O)C1=C(C)NC(=O)NC1c1ccoc1 (stereo unspecified) | -1.3 | 1.0 | -1.8 | x | 7.7 | -2.2 | 0.783
O=S(=O)(c1ccc(F)cc1)n1ccc2cccnc21 | 4.7 | -2.5 | 2.9 | x | 3.1 | -7.5 | 0.724
COc1ccc(NC(=O)CCN2CCOCC2)c(OC)c1 | x | 5.7 | 0.0 | i | -1.1 | -9.5 | 0.719
COc1cccc(C2N(Cc3ccccc3)C(=O)C2(F)F)c1OC (stereo unspecified) | 5.4 | 2.2 | 1.4 | i | 15.6 | x | 0.663
CNC(=O)c1c(NC(=O)C2=COCCO2)sc2c1CCCC2 | 3.0 | 1.5 | 2.6 | i | 10.8 | 80.8* | 0.69
CCOC(=O)c1ccc(NC(=O)CC2C(=O)N(c3ccccc3)C(=O)N2CCCOC)cc1 (stereo unspecified) | 3.5 | 0.8 | 1.8 | x | -0.5 | -4.6 | 0.685
Cc1ccc2c(c1)CCCN2C(=O)CCc1nc2ccccc2c(=O)[nH]1 | 2.9 | 2.1 | 0.4 | i | 22.8 | 10.6 | 0.712
Cc1ccc(Cn2c(NS(=O)(=O)c3ccccc3)nc3ccccc32)cc1 | -2.0 | -5.2 | 1.5 | x | -2.8 | -1.7 | 0.689
COC(=O)c1cccc(N/C=C(\[N+](=O)[O-])S(=O)(=O)c2ccccc2)c1 | 0.6 | -4.5 | 2.6 | i | -7.8 | 2.6 | 0.696
O=S(=O)(c1cccc(NC(=S)N2CCN(c3ccccc3F)CC2)c1)C(F)F | 0.5 | 4.9 | 0.8 | i | -5.4 | -20.3 | 0.693
O=C(NCCCN1CCCC1)c1ccc(CS(=O)(=O)c2ccc(Cl)cc2)o1 | -7.3 | -1.1 | 1.8 | i | 0.8 | -3.6 | 0.719
Cc1cccc2sc(NNC(=O)c3ccc(S(=O)(=O)N4CCCC(C)C4)cc3)nc12 (stereo unspecified) | 0.3 | -3.8 | 2.1 | i | 21.9 | x | 0.747
CC(C)n1c(O)c(N=Nc2ccccn2)c2ccccc21 | 2.2 | 0.0 | 4.6 | i | -8.8 | -3.0 | 0.657
O=C(CCn1nnc2ccccc21)Nc1nnc(-c2ccccc2F)s1 | -0.8 | 2.8 | 3.3 | x | 1.2 | -0.2 | 0.702
COc1cccc(CNC(=O)c2nnn(CC(=O)Nc3ccc(C)c(C)c3)c2N)c1 | 4.3 | -0.1 | -0.6 | x | 2.6 | -2.0 | 0.653
COC(=O)Cc1n[nH]c(=S)[nH]c1=O | -2.7 | -3.6 | 3.8 | x | -3.4 | -7.8 | 0.707
COc1nc(NC23CC4CC(CC(C4)C2)C3)nc(OC)n1 | 3.3 | -1.5 | 0.8 | x | -13.5 | -5.7 | 0.725
Cn1c(SCC(=O)NCC2CCCO2)nnc1-c1ccc(Cl)cc1 (stereo unspecified) | 3.3 | -5.9 | 2.7 | i | 5.0 | x | 0.68
O=C(Cc1ccccc1F)OCN1C(=O)c2ccccc2C1=O | 0.2 | 2.0 | 2.3 | i | 13.0 | 25.5 | 0.73
Cc1cccc(NC(=O)c2ccc(Cl)c(S(=O)(=O)N3CCCCC3)c2)n1 | 1.7 | -0.5 | 2.6 | i | 2.2 | -0.9 | 0.727
Cc1ccc(NC(=O)C2CCN(c3ncnc4c3nc3n4CCCCC3)CC2)nc1 | 3.7 | 2.5 | -2.0 | i | -4.7 | -1.4 | 0.679
O=C(/C=C/c1ccccc1)Nc1ncn[nH]1 | 14.4* | -3.1 | 6.5 | i | 17.8 | 1.8 | 0.717
Cc1ccc2[nH]c(=O)c(Cc3ccccc3)c(O)c2c1 | -0.9 | -1.4 | 1.5 | i | 0.3 | 1.5 | 0.7
N#C/C(=C\c1cccs1)C(=O)NCc1ccccc1 | 0.1 | 1.2 | 3.8 | x | 3.9 | -1.0 | 0.699
Cc1ccc(C(=O)/C=C\C(=O)c2ccc(C)cc2)cc1 | 10.2 | 1.3 | 3.3 | i | 21.7 | 97.9* | 0.707
O=C(COC(=O)c1cccnc1Nc1ccccc1F)NCCN1C(=O)CSC1=O | 6.2 | -1.5 | 4.0 | i | -3.3 | -8.6 | 0.624
